Screening data from PubChem.
NPR1 antag: Natriuretic polypeptide receptor (hNpr1) antagonism - Primary qHTS | 76,000 compounds, 1.6% hits | HEK293 hNpr1 GloSensor cGMP, ANP-stimulated luminescence | Atrial natriuretic peptide receptor 1 (Homo sapiens), P16066 | AID 1347048, 2019 | Potency, µM (highest dose often 46.3 µM), without a hit: at the highest dose activity change, negative = inhibition, hits mostly inhibitors; active = well fitted inhibition curve with a large enough effect; inconclusive = small, poorly fitted or top-dose-only effect; inactive = no such curve, though single readings can be large or run the other way;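 also: nearly all actives have a fitted effect of over 60% in size; nearly all hits also lower the signal before the agonist is added; a reference antagonist and vehicle were the controls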
Target sequence (P16066 whole entry, looked up): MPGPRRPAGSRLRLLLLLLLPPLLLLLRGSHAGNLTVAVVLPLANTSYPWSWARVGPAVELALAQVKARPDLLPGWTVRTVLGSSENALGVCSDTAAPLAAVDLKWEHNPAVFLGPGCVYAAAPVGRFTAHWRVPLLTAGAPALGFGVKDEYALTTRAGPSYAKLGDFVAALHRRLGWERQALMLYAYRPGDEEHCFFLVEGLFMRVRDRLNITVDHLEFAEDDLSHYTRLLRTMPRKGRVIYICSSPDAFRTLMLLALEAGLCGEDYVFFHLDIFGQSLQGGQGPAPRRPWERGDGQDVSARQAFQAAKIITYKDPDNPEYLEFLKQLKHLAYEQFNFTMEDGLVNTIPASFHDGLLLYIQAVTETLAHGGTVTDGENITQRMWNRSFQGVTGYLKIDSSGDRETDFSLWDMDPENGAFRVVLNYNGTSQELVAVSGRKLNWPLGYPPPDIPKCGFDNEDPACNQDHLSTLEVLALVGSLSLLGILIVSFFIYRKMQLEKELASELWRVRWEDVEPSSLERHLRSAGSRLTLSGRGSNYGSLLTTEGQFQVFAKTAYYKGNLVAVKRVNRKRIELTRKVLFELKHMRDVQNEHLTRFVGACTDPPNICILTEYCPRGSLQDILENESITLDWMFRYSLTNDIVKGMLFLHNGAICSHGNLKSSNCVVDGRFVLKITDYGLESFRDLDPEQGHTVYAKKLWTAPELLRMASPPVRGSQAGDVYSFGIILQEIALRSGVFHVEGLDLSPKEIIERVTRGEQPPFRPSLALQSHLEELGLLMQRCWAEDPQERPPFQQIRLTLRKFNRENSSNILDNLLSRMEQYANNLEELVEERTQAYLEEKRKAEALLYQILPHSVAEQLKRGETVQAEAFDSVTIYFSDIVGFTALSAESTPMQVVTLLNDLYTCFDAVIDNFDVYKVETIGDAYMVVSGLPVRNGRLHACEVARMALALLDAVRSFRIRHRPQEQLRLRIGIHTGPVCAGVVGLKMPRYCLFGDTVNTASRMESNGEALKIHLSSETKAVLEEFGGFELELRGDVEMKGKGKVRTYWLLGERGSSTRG
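Compound pre-incubated 30 min at room temperature on GloSensor-loaded HEK293 cells stably carrying hNpr1 and the pGS-40F cGMP biosensor. Stimulation uses hNppA at 0.1 nM final; luminescence is taken at baseline and 20 min post-agonist.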
An asterisk follows results filed as active; u = inconclusive; [ ] = dose if it differs, or a comment. % is scaled to controls: 0 for no effect and ±100 for the full control effect; potency is read from the fitted curve at half-maximal effect. These rows are one share of the data; rates above refer to the full screens.

SMILES	NPR1 antag
Cc1nn(C)c2nc(NCCC(=O)N3CCC(C)CC3)sc12	-23%
CCOc1ccc(CC(=O)N2CCC[C@H]2c2nc(-c3ccc(OC)c(OC)c3)no2)cc1	1%
CCCN(CC1CCOC1)S(=O)(=O)c1ccc(C(F)(F)F)cc1 (configuration not stated)	0%
CCCCN1CCN(C(=O)c2ccc3c(c2)N(S(C)(=O)=O)CC3)CC1	0%
CCCCCC(=O)Nc1nc2c(s1)C[C@@H]1[C@](C)(CO)[C@H](O)CC[C@@]1(C)[C@@H]2CC(=O)N1CCC(C(N)=O)CC1	1%
COc1cc(=O)n2c(c1C(=O)Nc1ccc(C)c(F)c1)CCCC2	0%
COc1ccc(S(=O)(=O)NC[C@@H]2C=C(C)[C@H](CC(=O)N3CCN(C)CC3)C[C@H]2C(C)C)cc1	2%
Fc1ccc(-c2cc(CC3(NC4CCCCC4)COC3)no2)cc1	1%[70.6 µM]
C=C(C)CN(C)C(=O)Cc1c2c(n(Cc3ccccc3F)c1C)CCCC2=O	0%
O=C(Nc1ccnn1C1CCN(C(=O)CCCc2ccccc2)CC1)c1cccc(F)c1	0%
CN(C)C(=O)c1n[nH]c2c1CN(C(=O)CCC(=O)c1ccc(F)cc1)CC2	-1%
COc1ccc(CCNC(=O)C2Cn3cccc3C(=O)N2C)cc1OC (configuration not stated)	-1%
Cc1ccc(C(=O)N[C@@H]2CN(C)C[C@H]2CN(C)C)s1	9%
COCCN1C(=O)[C@@H]2C[C@@H](CN2C2CCCC2)Oc2ccccc21	-12%[70.6 µM]
Cc1nn2c(c1-c1ccccc1N1CCCC1)N(C(=O)c1ccc(F)cc1)CCC2	-16%[70.6 µM]
O=C1CCC2(C(=O)NCCN3CCOCC3)CCCC=C2N1C1CCCC1 (configuration not stated)	-2%
O=C(Cc1cccc(C(F)(F)F)c1)N1CCCc2ncc(C(=O)N3CCCC[C@@H]3c3ccccc3)cc21	u
CC(NC(=O)c1ccc2oc(-c3ccc(C(F)(F)F)cc3)nc2c1)c1cnn(C)c1 (configuration not stated)	-30%
COCc1cc(C[C@@H]2C[C@H](NC(=O)COc3ccccc3)C2(C)C)no1	u
COc1ccccc1CCNC(=O)[C@@H]1CNC[C@H]1COc1cccnc1	4%
CCn1nc(C)cc1S(=O)(=O)N[C@H]1[C@H]2CCO[C@H]2[C@@H]1N1CCCCC1	4%
COc1ccc(C[C@H](NC(=O)[C@@]2(O)C[C@@H](O)[C@H](O)[C@@H](NS(=O)(=O)c3cccc(C(F)(F)F)c3)C2)C(N)=O)cc1	0%
Cc1ncccc1Oc1ncnc(N2CCC3(CC(=O)NC3=O)C2)c1C (configuration not stated)	1%
COc1ccc(CN2C=C(C(=O)OCc3noc(-c4cccc(OC)c4)n3)C(C)=NS2(=O)=O)cc1	u
CCC(=O)N1C2CCCC1CC(=O)C2	-10%[70.6 µM]
COCC1CN(C2CCC2)CC12CCN(S(=O)(=O)c1cnc[nH]1)CC2 (configuration not stated)	-5%
CCC1=C(C(=O)OC)C(c2ccccc2Cl)N2C(CC(=O)NCC3CC3)=CSC2=N1 (configuration not stated)	u
Cc1cc(C)n(-c2cccc(CN(C)C(=O)c3cc(C(C)C)no3)c2)n1	-30%
COCCC(=O)N1CCC(N2C(=O)C3(CCCCC3)C2c2ccccc2)CC1 (configuration not stated)	2%
O=C(NCCc1noc(C2CC2)n1)c1ccccc1	-4%
O=C(c1ccc(Br)o1)N1CCC(n2cnnc2C2CC2)CC1	0%
O=C1NCCCCCCN(C(=O)c2cnccn2)[C@H]2CCC[C@@H]12	-1%
C1=C(c2nc(-c3cncnc3)cc3c2ccn3Cc2cccnc2)CCOC1	3%[70.6 µM]
O=C(c1ccccn1)N1CCC(N2CC(OCC3CC3)C23CCOCC3)CC1 (configuration not stated)	2%
COc1cc(OC)cc(OCc2nc3c(n2Cc2ccccc2)C(=O)N(Cc2ccccc2F)CCN3)c1	-21%
CC(C)(Oc1nn(CCOc2ccccc2)c2ccccc12)C(=O)NCc1cnccn1	-2%[70.6 µM]
C#CCNC(=O)[C@@H]1Cc2cn(CC#CC)c3cccc(c23)[C@H](CC(C)C)N1	-2%[70.6 µM]
O=C(NCc1ccccn1)c1ccc(CN2C(=O)NC3(CCS(=O)(=O)CC3)C2=O)cc1	-8%
O=C(Nc1cccn2nc(C3CCC3)nc12)C1CCC1	1%
O=C(c1ccccc1)N1CCC(N(C(=O)C2CC2)C2CCOCC2)CC1	1%
Cc1ccc(C2NC(=O)N(CC(=O)Nc3cc(C)on3)C3=C2C(=O)OC3)cc1 (configuration not stated)	5%
Cc1nn2c(c1-c1ccccc1OCc1ccccc1)N(Cc1cccnc1)CCC2	-20%[70.6 µM]
Cc1ccc(S(=O)(=O)NCCCn2ccnc2-c2nc[nH]c2C)cc1	-2%
Cc1occc1C(=O)NC1CCc2nn(CC3CC3)c(=O)n2CC1 (configuration not stated)	7%
Cn1nc(-c2nncn2CC2CC2)c2c1CCN(C(=O)c1cn[nH]c1-c1ccccc1)C2	8%
CCOc1ccc(NC(=O)NCC2CCOCC2)cc1	-2%
Cc1nonc1CC(=O)N1CCc2onc(-c3ccc(F)c(F)c3)c2C1	-12%
CC(=O)c1c(C)nn(CC(=O)N2CCn3nc(Cc4ccccc4)cc3C2)c1C	11µM*
NC(=O)c1nc(CN2CCCC(C(=O)Nc3cccc(-n4cccn4)c3)C2)no1 (configuration not stated)	0%
COc1ccc(NC(=O)O[C@@H]2CO[C@H]3[C@@H]2OC[C@@H]3NC(=S)Nc2ccc(Cl)cc2)cc1	13µM*

Looked up above:
NPR1 antag with CC(=O)c1c(C)nn(CC(=O)N2CCn3nc(Cc4ccccc4)cc3C2)c1C stands at 11µM*
NPR1 antag with CCOc1ccc(NC(=O)NCC2CCOCC2)cc1 stands at -2%

New compounds follow.
SMILES	NPR1 antag
O=C(NCCn1ccnc1)c1cn(Cc2ccccc2C(F)(F)F)nn1	-10%
CC1CCC2(CC1)OCC(C(=O)NCc1ccco1)N2C(=O)c1ccccc1F (configuration not stated)	-3%
CNC(=O)C(C)Cn1ccnc1-c1cccc(CN(C)C)c1 (configuration not stated)	-3%
O=C(O)CCC(=O)N[C@H]1CO[C@H]2[C@@H]1OC[C@@H]2Nc1nccc(-c2cccc(F)c2)n1	-2%[70.6 µM]
O=C(c1csc(-c2cccs2)n1)N1CCC2(CCCO2)CC1	3%
O=C(CCc1cnccn1)N1CCOC(CCCc2ccccc2)C1 (configuration not stated)	4%
Cc1cc(NC(=O)C(C)(C)Oc2nn(CC3CC3)c3ccc(CN4CCCC4)cc23)n(C)n1	3%
O=C(NCc1cccc(F)c1)C1CN(Cc2ccccc2)C(=O)N1 (configuration not stated)	0%[70.6 µM]
CC(=O)Nc1ccc2c(c1)nc1n2[C@@H](CNC2CCN(C)CC2)COC1	2%[70.6 µM]
Cc1cc(NC(=O)CCn2ccn3nc4c(c3c2=O)CCCC4)ccc1F	-2%
O=C(CCCc1cccs1)N1CCCC(O)(CN2CCCC2)C1 (configuration not stated)	-2%
CC(C)c1ccc(NC(=O)C2CCCCC(=O)N2)cc1 (configuration not stated)	-3%
Cc1nonc1CN(C)C(=O)CC(c1ccccc1)c1cccc(Cl)c1 (configuration not stated)	-4%
CCOc1ccc2c(n1)CCN(C(=O)Nc1ccc(C)c(C)c1)C2	-10%
O=C(c1nccc2ccccc12)N1CCC2(CC1)CC(Cc1nc(C3CC3)no1)CCO2 (configuration not stated)	-3%
CCOc1ccc(CC(=O)N2CCN(c3cc(-c4ccc(OC)cc4)[nH]n3)CC2)cc1	-23%
COc1ccc(CN2CCN(c3ccccc3)CC2C)c(OC)c1OC (configuration not stated)	-13%
COc1ccc(F)c(CN2CCCC3(CCN(C(=O)c4ccsc4)C3)C2)c1 (configuration not stated)	3%
CN1CC2(CCN(C(=O)CCCc3ccccc3)CC2)CC1C(=O)N1CCOCC1 (configuration not stated)	4%
CCn1cc(Cl)c(C(=O)N2CCCn3cc(-c4ccccc4)nc32)n1	-10%

Sorted by formula weight (smallest number first): part of the list above
SMILES	NPR1 antag
CCOc1ccc2c(n1)CCN(C(=O)Nc1ccc(C)c(C)c1)C2	-10%
Cc1nonc1CN(C)C(=O)CC(c1ccccc1)c1cccc(Cl)c1 (configuration not stated)	-4%
COc1ccc(F)c(CN2CCCC3(CCN(C(=O)c4ccsc4)C3)C2)c1 (configuration not stated)	3%
CCOc1ccc(CC(=O)N2CCN(c3cc(-c4ccc(OC)cc4)[nH]n3)CC2)cc1	-23%
O=C(c1nccc2ccccc12)N1CCC2(CC1)CC(Cc1nc(C3CC3)no1)CCO2 (configuration not stated)	-3%

Other results follow:
SMILES	NPR1 antag
COc1cccc(N2CC3(CN(CCOc4ccccc4)C(=O)O3)C2)c1	-2%[70.6 µM]
Cc1nc(N2CCC(C(=O)NCC3CCCCC3)CC2)cc(C(F)(F)F)n1	1%
Cc1ccc(F)cc1S(=O)(=O)N1CCn2c(n[nH]c2=O)C1	2%
COCCN1CCC(N2CCN(S(=O)(=O)c3ccc(F)c(F)c3)CC2)C1=O (configuration not stated)	1%
CC(C)[C@@H]1CN(C(=O)c2cccc(Cn3cccn3)c2)C[C@H]1NC(=O)N(C)C	-1%
O=C1CC(c2ccccc2)N(Cc2ccncc2)CCCN(S(=O)(=O)c2cccs2)CCN1 (configuration not stated)	-1%
COc1ccc(NC(=O)c2ccc3c(c2)NC(C)(COc2ccccc2)CO3)cn1 (configuration not stated)	u
CC(C)NC(=O)Cn1nc2c(cc1=O)CCCC2	-13%
O=C(c1ccco1)N1CCC(c2n[nH]c(=O)n2Cc2ccc(F)cc2)CC1	4%
Cc1noc([C@@H]2CN(C(=O)c3ccc4c(c3)OCO4)C[C@H]2CO)n1	1%

Among those listed so far, six have a CF3 group.
SMILES	NPR1 antag
CCCN(CC1CCOC1)S(=O)(=O)c1ccc(C(F)(F)F)cc1 (configuration not stated)	0%
O=C(Cc1cccc(C(F)(F)F)c1)N1CCCc2ncc(C(=O)N3CCCC[C@@H]3c3ccccc3)cc21	u
CC(NC(=O)c1ccc2oc(-c3ccc(C(F)(F)F)cc3)nc2c1)c1cnn(C)c1 (configuration not stated)	-30%
COc1ccc(C[C@H](NC(=O)[C@@]2(O)C[C@@H](O)[C@H](O)[C@@H](NS(=O)(=O)c3cccc(C(F)(F)F)c3)C2)C(N)=O)cc1	0%
O=C(NCCn1ccnc1)c1cn(Cc2ccccc2C(F)(F)F)nn1	-10%
Cc1nc(N2CCC(C(=O)NCC3CCCCC3)CC2)cc(C(F)(F)F)n1	1%

(continued)
SMILES	NPR1 antag
COc1cccc(C(=O)NC2CCN(c3cc(C(F)(F)F)nc(C)n3)CC2)c1OC	u
Cc1nc2c(c(-c3ccc(Cl)cc3)n1)CCN(C(=O)C1CC1)CC2	0%
COc1cccc(C(=O)N2CCC(N3C[C@H](O)C[C@H]3C(=O)Nc3ccc4c(c3)OCCO4)CC2)c1	4%
COC(=O)[C@@H]1Cc2ncn(Cc3ccccc3)c2CN1S(=O)(=O)c1cccc(C(F)(F)F)c1	-5%
COc1ccc(NC(=O)NC[C@H]2O[C@@H](CO)[C@@H](O)C2N2CCN(c3ccccc3)CC2)cc1 (some centres not stated)	3%
Cn1cncc1C(=O)N1C[C@@H](COCC2CC2)[C@H](c2ccccn2)C1	-1%
Cc1cc(C)c(NC(=O)CN2C(=O)NC3(CCCCC3)C2=O)c(C)c1	3%
Cn1nc(C2CCN(C(=O)c3ccc[nH]3)CC2)n(Cc2ccccc2)c1=O	7%
CC(Oc1ccccc1)C(=O)N1CCc2c(c(-c3nncn3C(C)C)nn2C)C1 (configuration not stated)	-1%
O=C(CN1C(=O)CCC1=O)N1CCC(c2noc(-c3ccccn3)n2)C1 (configuration not stated)	4%
COc1ccccc1NC(=O)c1cnc(-c2ccc(F)cc2)nc1-c1ccncc1	-14%
COCCc1noc(CC2CCOC3(CCN(C(=O)C4CCOCC4)CC3)C2)n1 (configuration not stated)	-1%
O=C(O)C[C@@H]1CCN(S(=O)(=O)c2ccccc2)C[C@@H]1CCN1CCN(c2cccc(C(F)(F)F)c2)CC1	-1%
O=C(Nc1ccccc1)C1=NO[C@@H]2CN(Cc3cccc(O)c3)C[C@H]12	u
O=c1cc(N2CCOCC2)oc2c(-c3ccncc3)nccc12	0%[70.6 µM]
Cn1ncc(N2CCC(C(=O)NCC3CC3)C2)cc1=O (configuration not stated)	-10%
Cc1cc(Cl)ccc1NC(=O)N(C)CC1CCOC1 (configuration not stated)	-10%
O=C(c1cccc2nccnc12)N1CCOC(C(F)(F)F)C1 (configuration not stated)	8%
Cc1ccc(C(=O)N[C@@H]2CN(C3CCOCC3)C[C@H]2CN(C)C)cc1F	1%
Cc1ccc(CNC(=O)N2CCC(Oc3ncccc3C(=O)N3CCCCC3)C2)cc1 (configuration not stated)	1%
O=C(NCc1cccc(Br)c1)C1CCN(c2cnc3nccnc3c2)CC1	-12%
Cn1cc(-c2cccc(C(F)(F)F)c2)c2nc(CNc3ccccc3)cn2c1=O	-18%[70.6 µM]
CCc1ccc(CNC(=O)C2CCN(C(=O)c3ncn4c3COC(c3ccc(F)cc3)C4)CC2)cc1 (configuration not stated)	0%
O=C(NCCc1ccncc1)C1c2ccccc2C(=O)N(C2CCCCC2)C12CCCCC2 (configuration not stated)	-30%
c1c(-c2nc(C3CCOC3)no2)sc2c1CCCC2 (configuration not stated)	8.9µM*
Cc1cccc(C(=O)N2C[C@@H](Oc3ccccc3)C[C@@H]2C(=O)N2CCOCC2)c1	0%
Cc1cc2cc(-c3c(C)noc3C)nc(N(C)CCN(C)C)c2o1	4%[70.6 µM]
Cc1cn2nnc(C(=O)NC3CCCCCC3)c2c(=O)[nH]1	-3%
